HIV Env fusion: inhibitors of HIV Env-mediated cell fusion | HeLa-JRFL Env/CEM21 cell fusion, luciferase | inhibition, % at 12.3 µM | 360,000 compounds, 1.1% hits | AID 651610;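 active = mean replicate inhibition score of at least 50 and every replicate individually at or above 50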;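 also: 0% = plate neutral controls and 100% = maraviroc near 300 nM; one replicate is shown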
UUG fidelity: modulators of start codon recognition fidelity in yeast; 350,000 compounds, 0.13% hits; activity score, % at 18.7 µM; S. cerevisiae UUG-firefly luciferase reporter, luminescence/redox ratio;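 active = replicate mean at a twofold rise or more, about +100% in these data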;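 also: firefly luciferase made from a UUG start codon reports start codon fidelity; reporter light over untreated wells divided by growth signal over untreated wells; some hits fall short of that in this replicate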
* = called active by the depositor; [ ] = another dose, or the depositor's remark. Not all compounds are listed. The share of hits here may be higher or lower than overall.

no.	HIV Env fusion	UUG fidelity	Compound
1	22[16.7 µM]	9	COc1ccc(NC(=O)N(C)C[C@@H]2OCCCC[C@H](C)Oc3ccc(NS(C)(=O)=O)cc3C(=O)N([C@@H](C)CO)C[C@@H]2C)cc1
2	16[16.7 µM]	-21	C[C@@H]1CN([C@@H](C)CO)C(=O)c2cc(NS(C)(=O)=O)ccc2O[C@@H]1CN(C)S(=O)(=O)c1ccc(Cl)cc1
3	27[16.7 µM]	11	C[C@H]1CN([C@@H](C)CO)C(=O)c2cc(NC(=O)CCC(F)(F)F)ccc2O[C@H]1CN(C)C(=O)Nc1ccc2c(c1)OCO2
4	14[16.7 µM]	29	C[C@@H](NC(=O)C[C@@H]1CC[C@@H]2[C@H](COC[C@H](O)CN2Cc2cc(F)ccc2F)O1)c1ccccc1
5	-35[16.7 µM]	6	C[C@@H]1CN([C@@H](C)CO)S(=O)(=O)c2ccc(C#Cc3cccc(F)c3)cc2O[C@@H]1CN(C)C
6	14[16.7 µM]	-3	C[C@H]1CCCCO[C@H](CN(C)C(=O)NC2CCCCC2)[C@@H](C)CN([C@@H](C)CO)C(=O)c2cc(NS(=O)(=O)c3cn(C)cn3)ccc2O1
7	-18[16.7 µM]	0	C[C@@H]1CN([C@H](C)CO)C(=O)CCCn2cc(nn2)CO[C@@H]1CN(C)S(=O)(=O)c1cccc(F)c1
8	-8[16.7 µM]	28	CO[C@H]1CN(C)C(=O)c2ccc(NC(=O)NC(C)C)cc2OC[C@@H](C)N(C(=O)CN(C)C)C[C@@H]1C
9	4[16.7 µM]	19	COc1cccc(NC(=O)C[C@@H]2CC[C@H]3[C@H](COc4ccc(NC(C)=O)cc4C(=O)N3C)O2)c1
10	23[16.7 µM]	9	COc1ccccc1C#Cc1cnc2c(c1)C(=O)N([C@@H](C)CO)C[C@@H](C)[C@H](CN(C)C(C)=O)O2
11	9[16.7 µM]	-12	Cc1ccc(S(=O)(=O)Nc2ccc3c(c2)C(=O)N([C@@H](C)CO)C[C@H](C)[C@@H](CN(C)Cc2ccc(C(=O)O)cc2)O3)cc1
12	-2[16.7 µM]	0	C[C@H]1CN([C@@H](C)CO)C(=O)c2cc(NC(=O)C3CC3)ccc2O[C@H]1CN(C)C(=O)NC1CCCCC1
13	-1[16.7 µM]	4	COCC(=O)N(C)C[C@H]1Oc2cc(-c3ccc(C)cc3)ccc2S(=O)(=O)N([C@H](C)CO)C[C@@H]1C
14	-3[16.7 µM]	25	Cc1noc(C)c1NC(=O)Nc1ccc2c(c1)C(=O)N([C@H](C)CO)C[C@H](C)[C@@H](CN(C)C(=O)NC(C)C)OCCCC[C@H](C)O2
15	27[16.7 µM]	16	CN1C(=O)c2cc(NC(=O)c3ccc(F)cc3)ccc2OC[C@H]2O[C@@H](CC(=O)NCC3CCCCC3)CC[C@H]21
16	10[16.7 µM]	-11	COc1ccc(CN(C)C[C@@H]2Oc3ccc(NS(=O)(=O)c4c(C)noc4C)cc3C(=O)N([C@H](C)CO)C[C@H]2C)cc1
17	-12[16.7 µM]	-7	C[C@H](CO)N1C[C@H](C)[C@H](CN(C)C(=O)CC2CC2)Oc2ncc(C#C[C@@H](C)O)cc2C1=O
18	29[16.7 µM]	11	COc1ccc(S(=O)(=O)Nc2ccc3c(c2)C(=O)N([C@H](C)CO)C[C@@H](C)[C@H](CN(C)Cc2ccc(C(F)(F)F)cc2)OCCCC[C@H](C)O3)cc1
19	-9[16.7 µM]	10	Cc1noc(C)c1S(=O)(=O)N(C)C[C@@H]1OCCCC[C@@H](C)Oc2ccc(NC(=O)CCC(F)(F)F)cc2C(=O)N([C@@H](C)CO)C[C@@H]1C
20	-2[16.7 µM]	10	CC(C)CC#Cc1cnc2c(c1)C(=O)N([C@H](C)CO)C[C@H](C)[C@@H](CN(C)C(=O)c1ccc(F)cc1)O2
21	6[16.7 µM]	-11	CC(C)C#Cc1ccc([C@@H]2[C@@H](C#N)N(C(=O)C3CCOCC3)[C@H]2CO)cc1
22	27[16.7 µM]	-9	C[C@H]1CN([C@@H](C)CO)S(=O)(=O)c2ccc(C3=CCCCC3)cc2O[C@@H]1CN(C)S(=O)(=O)c1ccc(F)cc1
23	1[16.7 µM]	-12	COCC(=O)N(C)C[C@@H]1Oc2cc(C3=CCCC3)ccc2S(=O)(=O)N([C@@H](C)CO)C[C@H]1C
24	-2[16.7 µM]	-16	CCCNC(=O)N(C)C[C@@H]1Oc2cc(-c3ccncc3)ccc2S(=O)(=O)N([C@@H](C)CO)C[C@@H]1C
25	1[16.7 µM]	-3	N#C[C@H]1[C@@H](c2ccccc2)[C@H](CO)N1S(=O)(=O)c1ccc(-c2ccccc2)cc1

Some of the entries above, set out differently.
18) COc1ccc(S(=O)(=O)Nc2ccc3c(c2)C(=O)N([C@H](C)CO)C[C@@H](C)[C@H](CN(C)Cc2ccc(C(F)(F)F)cc2)OCCCC[C@H](C)O3)cc1
19) Cc1noc(C)c1S(=O)(=O)N(C)C[C@@H]1OCCCC[C@@H](C)Oc2ccc(NC(=O)CCC(F)(F)F)cc2C(=O)N([C@@H](C)CO)C[C@@H]1C
20) CC(C)CC#Cc1cnc2c(c1)C(=O)N([C@H](C)CO)C[C@H](C)[C@@H](CN(C)C(=O)c1ccc(F)cc1)O2
21) CC(C)C#Cc1ccc([C@@H]2[C@@H](C#N)N(C(=O)C3CCOCC3)[C@H]2CO)cc1
22) C[C@H]1CN([C@@H](C)CO)S(=O)(=O)c2ccc(C3=CCCCC3)cc2O[C@@H]1CN(C)S(=O)(=O)c1ccc(F)cc1
23) COCC(=O)N(C)C[C@@H]1Oc2cc(C3=CCCC3)ccc2S(=O)(=O)N([C@@H](C)CO)C[C@H]1C
24) CCCNC(=O)N(C)C[C@@H]1Oc2cc(-c3ccncc3)ccc2S(=O)(=O)N([C@@H](C)CO)C[C@@H]1C
25) N#C[C@H]1[C@@H](c2ccccc2)[C@H](CO)N1S(=O)(=O)c1ccc(-c2ccccc2)cc1

Compound	18	19	20	21	22	23	24	25
HIV Env fusion	29[16.7 µM]	-9[16.7 µM]	-2[16.7 µM]	6[16.7 µM]	27[16.7 µM]	1[16.7 µM]	-2[16.7 µM]	1[16.7 µM]
UUG fidelity	11	10	10	-11	-9	-12	-16	-3

Next records follow:
no.	HIV Env fusion	UUG fidelity	Compound
26	-4[16.7 µM]	10	C[C@H]1CN([C@@H](C)CO)C(=O)c2cc(C#Cc3ccc(F)cc3)cnc2O[C@H]1CN(C)CC1CCOCC1
27	-3[16.7 µM]	5	C[C@H]1CN([C@@H](C)CO)S(=O)(=O)c2ccc(C#CC(C)(C)O)cc2O[C@@H]1CN(C)C(=O)CN(C)C
28	-9[16.7 µM]	-1	COc1ccc(NC(=O)N(C)C[C@@H]2OCCCC[C@@H](C)Oc3ccc(NS(=O)(=O)c4ccccc4)cc3C(=O)N([C@@H](C)CO)C[C@H]2C)cc1
29	6[16.7 µM]	5	O=C(N[C@H]1CC[C@H](CCNS(=O)(=O)c2ccc(F)cc2)O[C@@H]1CO)C1CCCC1
30	13[16.7 µM]	3	C[C@H]1CN([C@@H](C)CO)C(=O)c2cc(N(C)C)ccc2O[C@@H]1CN(C)C(=O)Nc1ccc(F)cc1
31	-23[16.7 µM]	-11	C[C@@H]1CN([C@H](C)CO)C(=O)c2cc(-c3ccccc3F)cnc2O[C@@H]1CN(C)Cc1cccc(C(=O)O)c1
32	0[16.7 µM]	5	O=C(N[C@H]1CC[C@H](CCNS(=O)(=O)c2cccc(Cl)c2)O[C@H]1CO)c1ccccc1
33	7[16.7 µM]	7	C[C@H](CO)N1C[C@H](C)[C@H](CN(C)CC2CCCCC2)Oc2ccc(NC(=O)Cc3ccccc3)cc2CC1=O
34	6[16.7 µM]	-1	C[C@H]1CN([C@@H](C)CO)C(=O)c2cc(C#Cc3ccccn3)cnc2O[C@@H]1CN(C)C(=O)c1ccccn1
35	-30[16.7 µM]	12	C[C@@H]1CN([C@@H](C)CO)C(=O)Cc2cc(NS(=O)(=O)c3ccc(F)cc3)ccc2O[C@H]1CN(C)S(=O)(=O)c1ccc(Cl)cc1
36	16[16.7 µM]	-15	C[C@H]1CN([C@@H](C)CO)C(=O)c2cc(C3=CCCCC3)cnc2O[C@@H]1CN(C)Cc1ccccc1F
37	-3[16.7 µM]	-8	C[C@@H]1CN([C@H](C)CO)S(=O)(=O)c2ccc(C3=CCCC3)cc2O[C@@H]1CN(C)CC1CCOCC1
38	-33[16.7 µM]	-2	C[C@H](CO)N1C[C@H](C)[C@H](CN(C)C(=O)Nc2cccc3ccccc23)Oc2c(NS(=O)(=O)c3ccccc3)cccc2C1=O
39	-16[16.7 µM]	7	COc1ccc(CN(C)C[C@@H]2OCCCC[C@H](C)Oc3ccc(NC(=O)NC4CCCCC4)cc3C(=O)N([C@@H](C)CO)C[C@@H]2C)cc1
40	-5[16.7 µM]	2	CO[C@@H]1CN(C)C(=O)c2ccc(NS(=O)(=O)c3ccc(C)cc3)cc2OC[C@H](C)N(C)C[C@H]1C
41	-20[16.7 µM]	-10	COCCOC(=O)N1C(=O)[C@@]2(c3cc(C#CCNC(N)=O)ccc31)[C@H](C(N)=O)[C@H]1C(=O)O[C@H](c3ccccc3)[C@H](c3ccccc3)N1[C@@H]2c1ccccc1OCCO
42	-16[16.7 µM]	3	Cc1ccc(S(=O)(=O)N(C)C[C@@H]2Oc3c(NC(=O)C4CCOCC4)cccc3C(=O)N([C@@H](C)CO)C[C@@H]2C)cc1
43	-16[16.7 µM]	-1	Cc1noc(C)c1NC(=O)Nc1ccc2c(c1)C(=O)N([C@H](C)CO)C[C@H](C)[C@@H](CN(C)C(=O)Nc1ccc(C(F)(F)F)cc1)OCCCC[C@@H](C)O2
44	-32[16.7 µM]	-34	N#C[C@H]1N[C@H](CO)[C@H]1c1ccc(C#Cc2ccc(F)cc2)cc1
45	6[16.7 µM]	-27	CNC[C@H]1Oc2ccc(NC(=O)Nc3c(C)noc3C)cc2C(=O)N([C@@H](C)CO)C[C@H]1C
46	-5[16.7 µM]	-1	CCC(=O)Nc1ccc2c(c1)C(=O)N(C)[C@@H]1CC[C@@H](CC(=O)NCCCN(C)C)O[C@H]1CO2
47	16[16.7 µM]	-3	COCC#Cc1cnc2c(c1)C(=O)N([C@@H](C)CO)C[C@@H](C)[C@@H](CN(C)C(=O)Cc1ccccc1)O2
48	-13[16.7 µM]	-3	COc1ccccc1S(=O)(=O)N[C@@H]1C=C[C@@H](CC(=O)NCc2cccc(F)c2)O[C@H]1CO
49	5[16.7 µM]	0	CO[C@@H]1CN(C)C(=O)c2cc(NC(=O)C3CC3)ccc2OC[C@H](C)N(C(=O)c2ccncc2)C[C@@H]1C
50	3[16.7 µM]	10	CC(C)C(=O)Nc1ccc2c(c1)C(=O)N(C)[C@H]1CC[C@@H](CC(=O)NCC3CC3)O[C@H]1CO2
51	15[16.7 µM]	-1	C[C@H]1CN([C@@H](C)CO)C(=O)Cc2cc(NC(=O)CCC(F)(F)F)ccc2O[C@@H]1CN(C)S(=O)(=O)c1ccc(Cl)cc1
52	-8[16.7 µM]	-4	Cc1noc(C)c1S(=O)(=O)N(C)C[C@H]1Oc2ccc(NS(=O)(=O)c3cn(C)cn3)cc2CC(=O)N([C@@H](C)CO)C[C@@H]1C
53	0[16.7 µM]	-11	Cc1noc(C)c1S(=O)(=O)Nc1ccc2c(c1)C(=O)N([C@@H](C)CO)C[C@@H](C)[C@@H](CN(C)C(=O)Nc1ccc(C(F)(F)F)cc1)O2
54	8[16.7 µM]	4	C[C@H](CO)N1C[C@H](C)[C@@H](CN(C)Cc2ccc(C(=O)O)cc2)Oc2ncc(C3=CCCC3)cc2C1=O
55	1[16.7 µM]	9	C[C@H](CO)N1C[C@H](C)[C@@H](CN(C)Cc2cncnc2)Oc2cc(C#C[C@@H](C)O)ccc2S1(=O)=O
56	15[16.7 µM]	14	C[C@H]1CN([C@@H](C)CO)S(=O)(=O)c2ccc(C3=CCCC3)cc2O[C@@H]1CN(C)C
57	-15[16.7 µM]	19	C[C@H]1CCCCO[C@H](CN(C)S(=O)(=O)c2cccs2)[C@@H](C)CN([C@@H](C)CO)C(=O)c2cc(N(C)C)ccc2O1
58	-6[16.7 µM]	4	Cc1noc(C)c1NC(=O)N(C)C[C@@H]1OCCCC[C@H](C)Oc2ccc(NS(=O)(=O)c3ccc(Cl)cc3)cc2C(=O)N([C@H](C)CO)C[C@@H]1C
59	9[16.7 µM]	-5	CC(C)NC(=O)Nc1cccc2c1O[C@H](CN(C)Cc1ccccc1)[C@H](C)CN([C@H](C)CO)C2=O
60	-10[16.7 µM]	-5	C[C@H](CO)N1C[C@H](C)[C@@H](CN(C)Cc2ccc(F)cc2)Oc2ncc(C#CCN(C)C)cc2C1=O
61	15[16.7 µM]	0	CC(=O)N(C)C[C@H]1Oc2ncc(C#CC(C)(C)O)cc2C(=O)N([C@H](C)CO)C[C@@H]1C
62	-3[16.7 µM]	0	C[C@H](CO)N1C[C@H](C)[C@H](CN(C)C(=O)Nc2cccc3ccccc23)Oc2ccc(NC(=O)C3CCCCC3)cc2CC1=O
63	-15[16.7 µM]	9	C[C@H](CO)N1C[C@H](C)[C@H](CN(C)Cc2ccc(Oc3ccccc3)cc2)Oc2ccc(NC(=O)Nc3ccc4c(c3)OCO4)cc2C1=O
64	29[16.7 µM]	23	Cc1noc(C)c1NC(=O)Nc1ccc2c(c1)C(=O)N([C@H](C)CO)C[C@@H](C)[C@@H](CN(C)Cc1ccccc1)OCCCC[C@H](C)O2
65	-3[16.7 µM]	3	C[C@H]1CN([C@@H](C)CO)S(=O)(=O)c2ccc(C3=CCCCC3)cc2O[C@@H]1CN(C)Cc1cccnc1
66	12[16.7 µM]	-14	O=C(C[C@@H]1C[C@@H]2c3cc(NC(=O)c4cccnc4)ccc3O[C@@H]2[C@H](CO)O1)NCc1cccc(F)c1
67	-5[16.7 µM]	-3	CC(=O)Nc1ccc2c(c1)C(=O)N(C)[C@@H]1CC[C@H](CC(=O)NCc3ccccc3)O[C@@H]1CO2
68	12[16.7 µM]	-14	N#C[C@@H]1[C@@H](c2ccc(-c3ccc(F)cc3)cc2)[C@@H](CO)N1c1nc(-c2ccccc2)cs1
